Mtb bLac sens: beta-lactam sensitization of Mtb H37Rv. M. tuberculosis H37Rv growth with meropenem, percent inhibition; hits of this screen are not shown here. inhibition, % at 25 µM. hit rate 0.27% among 330,000;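 active = about 74% or more and at least 40 points above the plate without the antibiotic, then above 30% in a dose series; inconclusive = first-round hits that could not be retested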;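 also: growth measured after seven days incubation then overnight dye step; 0% = bacteria only wells and 100% = bacteria with antibiotic; twin plates without the antibiotic show which effects depend on it; some results filed as inactive read as strong as hits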
Mtb growth: M. tuberculosis H37Rv growth inhibitors, H37Rv strain (AID 1626) | hit rate 0.95% among 220,000 | inhibition, % at 10 µM; hits with a dose series show IC50 in µM | M. tuberculosis H37Rv growth inhibition; higher % means a stronger effect;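 active = confirmed in a dose series; inconclusive = inhibition above 80% but not taken into the dose series; inactive = below 80% or under 30% at every dose of the series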;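 also: bacteria incubated seven days before Alamar blue readout; 0% = bacteria only wells and 100% = bacteria with antibiotic wells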
Arbovirus inh: antivirals against arbovirus infection. AID 1251. hit rate 0.37% among 200,000. inhibition, % at 10 µM. arbovirus infection cell-based antiviral screen;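 active = inhibition from about 30%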;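 also: bluetongue infection of BSR cells; cell survival read as ATP light after 72 h; 0% = infected wells without compound and 100% = uninfected wells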
YopH inh: blocks Yersinia enterocolitica YopH tyrosine phosphatase. fluorescence Ex485/Em525. inhibition, %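 (about 10 µM by stock and volumes)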. hit rate 0.16% among 140,000;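 active = inhibition of 50% or more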;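 also: controls were vehicle for no effect and minimum signal wells for full effect; inactives centre near -20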
RecA intein inh: blocks M. tuberculosis RecA intein splicing | inhibition, %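 (about 9 µM by stock and volumes)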 | hit rate 0.75% among 290,000 | cell-free RecA intein splicing, fluorescence; in the data active = inhibition above about 30%; inconclusive = no clear call, values can overlap the other calls;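 also: 0% = vehicle wells and 100% = reference inhibitor control wells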
Target sequence (P9WHJ3 whole entry, looked up): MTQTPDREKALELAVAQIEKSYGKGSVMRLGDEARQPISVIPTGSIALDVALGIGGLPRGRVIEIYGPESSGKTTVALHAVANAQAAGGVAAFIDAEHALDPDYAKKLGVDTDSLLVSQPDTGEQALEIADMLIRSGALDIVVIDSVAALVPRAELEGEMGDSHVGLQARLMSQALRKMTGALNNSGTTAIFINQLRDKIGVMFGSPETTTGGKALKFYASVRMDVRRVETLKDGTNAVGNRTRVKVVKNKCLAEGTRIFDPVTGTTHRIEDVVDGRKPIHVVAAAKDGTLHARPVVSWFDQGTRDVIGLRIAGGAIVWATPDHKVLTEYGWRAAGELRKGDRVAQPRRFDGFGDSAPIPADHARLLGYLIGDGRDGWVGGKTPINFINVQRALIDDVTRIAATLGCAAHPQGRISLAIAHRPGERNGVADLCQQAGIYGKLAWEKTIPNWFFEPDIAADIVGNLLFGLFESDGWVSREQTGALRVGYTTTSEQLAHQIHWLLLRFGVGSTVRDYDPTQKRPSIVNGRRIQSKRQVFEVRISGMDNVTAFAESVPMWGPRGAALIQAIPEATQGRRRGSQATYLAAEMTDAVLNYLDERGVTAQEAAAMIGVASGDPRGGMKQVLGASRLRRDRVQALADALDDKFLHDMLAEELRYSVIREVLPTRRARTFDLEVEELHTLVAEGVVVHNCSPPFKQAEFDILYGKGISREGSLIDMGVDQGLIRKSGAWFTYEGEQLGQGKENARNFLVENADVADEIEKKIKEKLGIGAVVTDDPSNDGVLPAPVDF
Arbovirus inh repeat: second read-out of Arbovirus inh, no call of its own (marks repeat the call); inhibition, %; measured here: 10K subset replicate screen; many hits read low in the repeat;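 first of two repeat runs on a subset; 0% = infected and 100% = uninfected wells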
An asterisk follows results filed as active; ? = inconclusive; nt = no result given.

SMILES	Mtb bLac sens	Mtb growth	Arbovirus inh	YopH inh	RecA intein inh	others
CCCN1C(=O)c2ccccc2NC1c1ccc(C)cc1 (stereo not given)	0.5	-2.2%	2.9	nt	3.4
O=C(CCN1C(=O)c2cccc3cccc(c23)C1=O)NCc1cccnc1	-5.6	4.5%	-1.5	nt	-4.3
Cn1c(SCC(=O)NCC2CCCO2)nnc1-c1cccc(NC(=O)c2ccccc2F)c1 (stereo not given)	-3.7	-5.1%	-0.9	nt	4.1
COc1cc(CNC2CCCCCCC2)cc(Cl)c1OC	-0.6	nt	nt	nt	1.4
COCCn1c(=O)[nH]c2cc(C(=O)N3CCN(c4cccc(C(F)(F)F)c4)CC3)ccc2c1=O	-1.1	nt	nt	nt	-27.7
CCOC(=O)N1CCC(N(CCN(C)C)C(=S)Nc2ccc(OCC)cc2)CC1	-5.4	7.0%	1.5	nt	-0.6
C=C(C)COc1cc2oc(=O)c(CC(=O)N3C[C@H]4C[C@@H](C3)c3cccc(=O)n3C4)c(C)c2cc1Cl	-4.0	nt	nt	nt	-14.0
OCCN1CCN(c2nc(N3CCCCC3)nc(N3CCCCC3)n2)CC1	-7.3	1.6%	-14.5	-18.8	1.9
COC(=O)c1sccc1NC(=O)Nc1cccc(C(C)=O)c1	-0.1	-4.1%	-1.2	nt	-0.4
Brc1ccccc1OCCN1CCCC1	-7.2	nt	nt	nt	-2.6
COc1cc(CN2CCNC(=O)C2CC(=O)N(C)CCCN2CCOCC2)cc(OC)c1 (stereo not given)	?	nt	nt	nt	-1.6
CCOc1ccc(NC(=O)CC)cc1	-1.4	63.3%	4.6	nt	-0.2

The final 4 entries of the section before are carried over, then new ones follow.
SMILES	Mtb bLac sens	Mtb growth	Arbovirus inh	YopH inh	RecA intein inh	others
COC(=O)c1sccc1NC(=O)Nc1cccc(C(C)=O)c1	-0.1	-4.1%	-1.2	nt	-0.4
Brc1ccccc1OCCN1CCCC1	-7.2	nt	nt	nt	-2.6
COc1cc(CN2CCNC(=O)C2CC(=O)N(C)CCCN2CCOCC2)cc(OC)c1 (stereo not given)	?	nt	nt	nt	-1.6
CCOc1ccc(NC(=O)CC)cc1	-1.4	63.3%	4.6	nt	-0.2
COc1ccc(C(=O)NCCn2ccc3ccccc32)cc1OC	-0.8	3.8%	-5.2	-12.3	-1.7	Arbovirus inh repeat=0.9
COc1ccc2c(c1)sc(=N)n2CC(=O)Nc1cc(C)cc(C)c1	0.9	3.5%	23.0	nt	-2.1
O=C1C(c2ccc(F)cc2)N(CC2COc3ccccc3O2)C(=O)CN1C1CCCCC1 (stereo not given)	-16.8	4.6%	3.7	-89.5	-4.5
CC(=O)Nc1cccc(OCC(=O)/C=C2\N(C)c3ccccc3C2(C)C)c1	82.2	73.9%	-8.4	nt	1.2
Cc1cc(=O)nc2c3ccccc3n(C(C)C(=O)NCCC(C)C)n12 (stereo not given)	-12.5	-3.3%	nt	nt	-6.5
O=C(O)c1ccccc1NC(=O)N1C[C@H]2C[C@@H](C1)c1cccc(=O)n1C2	8.9	nt	nt	nt	0.8
Fc1ccc(NC(=S)N2CCCc3ccccc32)cc1	1.0	-6.5%	-2.6	-29.3	-0.3
COCCn1c(SC(C)C(=O)Nc2ccc3c(c2)OCCO3)nc2ccccc2c1=O (stereo not given)	0.4	-10.0%	12.5	-43.7	-1.7
CCn1c2ccccc2c2cc(NC(=O)N3CCOCC3)ccc21	15.3	4.8%	-6.1	-31.8	24.5
Cc1ccc2c(c1)N(Cc1ccncc1)C(=O)C(C)O2 (stereo not given)	-2.4	-2.3%	0.5	-6.5	1.1
CC(C)c1nc2c(s1)CCc1onc(-c3cccc([N+](=O)[O-])c3)c1-2	18.8	nt	nt	nt	1.5
O=C(Nc1cccc(C(F)(F)F)c1)Nn1cnnc1	-1.6	nt	nt	nt	1.5
O=C(Nc1ccc(F)cc1)Nc1nnc(-c2ccncc2)s1	-2.6	-5.0%	25.0	-16.5	1.9
CCOC(=O)N1CCC(N2Cc3cccc(C(=O)NCc4ccccn4)c3C2=O)CC1	2.4	-4.9%	3.9	-35.7	2.1	Arbovirus inh repeat=2.1
CCN(CC(=O)NCc1ccc(F)cc1)C(=O)C1CCN(C(=O)Nc2ccccc2)CC1	0.3	-3.9%	3.2	-4.5	-1.1	Arbovirus inh repeat=3.0
COc1ccc(Nc2nc(N)c([N+](=O)[O-])c(N3CCN(C)CC3)n2)cc1	-5.0	nt	nt	nt	-0.2
O=C(OCC(=O)c1c[nH]c2ccccc12)c1cc(Br)ccc1O	1.1	?	-0.1	nt	1.8
CSc1ncc(C(=O)Nc2ccc(Br)cn2)c(C)n1	99.7	nt	nt	nt	-2.0
Cc1ccc(C(=O)/C=C\C(=O)c2ccc(C)cc2)cc1	100.3	?	-10.6	-18.1	6.2
COc1ccc(C(=O)N/N=C/c2ccc(OC(=O)c3cccs3)cc2)cc1	17.4	61.4%	0.9	-27.5	-11.6
CC1CCCC/C1=N\NS(=O)(=O)c1ccc(Br)cc1 (stereo not given)	-3.5	1.6%	4.3	-5.4	0.6
CC(CCc1ccccc1)NC(=O)c1cc2sccc2n1C (stereo not given)	12.8	-1.1%	42.0*	-30.9	0.7
OCC[C@@H]1C[C@@H](O)[C@H](O)[C@@]2(OCCc3ccccc32)O1	-4.7	nt	nt	nt	-2.0
O=S(=O)(c1ccc(NC(=S)N/N=C/c2ccc(Oc3ccccc3)cc2)cc1)N1CCOCC1	-5.6	-7.2%	-11.5	nt	0.8
CC1(C)C(C(=O)NN2C(=O)c3ccccc3C2=O)C1(C)C	-6.2	-5.2%	8.5	-15.0	-1.7
COc1cccc(/C=C/C2=CC(C)(C)NC(=S)N2)c1	2.1	-3.2%	2.0	nt	0.8
COc1ccc(-n2nnnc2-c2cccnc2)cc1	-2.1	-3.3%	-12.0	-12.1	-2.5
COc1ccccc1NS(=O)(=O)c1cccc(C(=O)NCC(C)(C)N2CCOCC2)c1	-2.1	nt	nt	nt	-1.3
CCOCCCNC(=O)c1ccc(Cn2c(=O)[nH]c3ccsc3c2=O)cc1	1.8	-3.8%	7.5	nt	-1.3
Cc1ccccc1NC(=O)OCCN1CCN(Cc2ccccc2)CCC1=O	-12.5	-4.2%	-0.3	-12.1	-2.4
COCCNC(=O)CN(C(=O)CCC(=O)Nc1ccccn1)c1ccccc1F	-3.8	-7.2%	13.7	nt	4.1
O=C(Nc1nc(-c2ccc(S(=O)(=O)N3CCCC3)cc2)cs1)c1cccs1	0.8	14.9%	3.8	-12.4	nt
CCN(C(=O)COC(=O)c1ccccc1Cc1ccccc1)C1CCS(=O)(=O)C1 (stereo not given)	2.0	nt	nt	nt	0.1
COC(=O)C1C(O)=C(C=NCC(C)N=CC2=C(O)C(C(=O)OC)C(C)(C)CC2=O)C(=O)CC1(C)C (stereo not given)	5.0	-0.6%	1.4	-28.1	1.4	Arbovirus inh repeat=3.0
N#CC(c1ccc(Cl)cc1)(c1ncc(C(F)(F)F)cc1Cl)N1CCOCC1 (stereo not given)	-9.9	nt	-0.4	-39.0	11.4
O=[N+]([O-])c1cccc(OCCN2CCC(Cc3ccccc3)CC2)c1	-0.3	nt	nt	nt	-0.2
CCCN(CCC)C1CCc2cccc(O)c2C1 (stereo not given)	1.1	-6.8%	nt	nt	1.5
COc1cccc(-n2nnnc2SCC(=O)NC2CCCCC2)c1	1.1	nt	nt	nt	2.0
Cc1ccc(C(=O)NC(=S)Nc2ccccc2C(F)(F)F)cc1	-8.2	-4.6%	17.6	11.7	5.4
O=C(c1ccc(Cl)cc1)N1CCN(c2ccnc3cc(Cl)ccc23)CC1	nt	8.5%	9.3	nt	-2.7
COc1ccc(CCNC(=O)/C(=C/c2cccnc2)NC(=O)c2ccccc2)cc1OC	4.4	-11.4%	7.7	nt	-4.1
COCCn1c(C)cc(C(=O)COC(=O)C23CC4CC(CC(O)(C4)C2)C3)c1C	7.1	0.7%	-0.3	-35.3	1.0
COC(=O)C1CCN(C(=O)COC(=O)CC(NC(N)=O)c2ccc(Cl)cc2)CC1 (stereo not given)	-4.5	3.2%	3.7	-8.3	1.7
CCC(=O)Oc1ccc(C(=O)Nc2cccc(C(=O)NC(C)(C)C)c2)cc1	-0.9	6.9%	-0.7	nt	8.8
CN(C)c1nc2c(c(=O)[nH]c(=O)n2C)n1CCCc1ccccc1	1.0	nt	nt	nt	-0.9
O=C(NCc1nnnn1-c1ccc(F)c(F)c1)c1ccc2c(c1)OCO2	-10.5	nt	nt	nt	0.5
N#Cc1c(N)nc2c3c(sc(=N)c2c1N)NC(=O)CC3c1c(F)cccc1Cl (stereo not given)	-0.6	4.1%	5.3	-33.9	-10.7
Cc1[nH]c2ccccc2c1/C=C/C(=O)c1ccncc1	4.8	6.7%	nt	nt	-1.7

Next part; it opens with the 3 that closed the last part.
SMILES	Mtb bLac sens	Mtb growth	Arbovirus inh	YopH inh	RecA intein inh	others
O=C(NCc1nnnn1-c1ccc(F)c(F)c1)c1ccc2c(c1)OCO2	-10.5	nt	nt	nt	0.5
N#Cc1c(N)nc2c3c(sc(=N)c2c1N)NC(=O)CC3c1c(F)cccc1Cl (stereo not given)	-0.6	4.1%	5.3	-33.9	-10.7
Cc1[nH]c2ccccc2c1/C=C/C(=O)c1ccncc1	4.8	6.7%	nt	nt	-1.7
CS(=O)(=O)Nc1cccc(C2=NN(S(=O)(=O)c3ccccc3)C(c3ccco3)C2)c1 (stereo not given)	-7.4	-9.3%	2.1	nt	3.4
CNC(=O)NNC(=O)c1nc(-c2ccccc2)c(C)o1	-2.2	-8.3%	nt	nt	7.7
CS(=O)(=O)c1ccc(S(=O)(=O)N2CCC(CO)(CCCc3ccccc3)CC2)cc1	0.3	nt	nt	nt	-0.5
Cc1cccc(-c2nnc(SCC(=O)Nc3ncccn3)n2C)c1	-4.2	2.9%	9.5	nt	-2.3
Cc1ccc(C(=O)NCC(=O)Nc2ccncc2)s1	-4.8	nt	nt	nt	-3.6
COc1ccc2nc(NC(=O)C3COc4ccccc4O3)sc2c1 (stereo not given)	50.0	16.7%	7.0	-30.7	9.4	Arbovirus inh repeat=9.8
COCCc1nn2c(=O)cc(COC(=O)c3cc(OC)c(OC)c(OC)c3)nc2s1	?	nt	nt	nt	0.8
COc1cc2[nH]c(=O)n(CCCCCC(=O)NCCc3c[nH]c4ccccc34)c(=O)c2cc1OC	0.5	-6.2%	-6.7	-21.5	-3.3
Nc1ccccc1-c1n[nH]c(=S)s1	nt	-3.0%	1.9	nt	nt
Cc1ccc(C2C(/C=C3/SC(=S)NC3=O)=C(c3cccs3)Oc3ccccc32)cc1 (stereo not given)	1.6	2.6%	-33.6	4.0	3.5
O=C(NCC(=O)N1CCN(Cc2ccccc2)CC1)c1ccc(Br)cc1	-7.5	nt	nt	nt	0.8
CN(C)N1C(N)=C(C#N)C(c2ccc(F)cc2)C2=C1CCCC2=O (stereo not given)	1.7	nt	nt	nt	-2.9
COc1ccc(CCC(C(O)C(F)(F)F)S(=O)c2ccccc2)cc1 (stereo not given)	8.4	-1.4%	8.0	-29.6	2.6	Arbovirus inh repeat=4.8
CC1(C)CC(NC(=O)c2ccccn2)CC(C)(C)N1O	-5.0	1.3%	1.2	nt	-3.8

Two compounds picked at random from those above, as already listed:
SMILES	Mtb bLac sens	Mtb growth	Arbovirus inh	YopH inh	RecA intein inh	others
COc1cc2[nH]c(=O)n(CCCCCC(=O)NCCc3c[nH]c4ccccc34)c(=O)c2cc1OC	0.5	-6.2%	-6.7	-21.5	-3.3
Cc1ccc(C2C(/C=C3/SC(=S)NC3=O)=C(c3cccs3)Oc3ccccc32)cc1 (stereo not given)	1.6	2.6%	-33.6	4.0	3.5

High-throughput results from PubChem BioAssay.

Not all compounds are listed, so the mix of outcomes need not match the whole.
